miR-21 FLuc: raises the signal of a miR-21 reporter; HeLa miR-21 FLuc reporter, luciferase, 48 h; Potency, µM (series often up to 38.3 µM), for the others: at the highest dose reporter change, positive = more light; 340,000 tested, under 10 active; AID 2288; active = well fitted rising curve with a large enough effect; inconclusive = small, poorly fitted or top-dose-only effect; inactive = no such curve, though single readings can be large or run the other way;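 note: % of control where 0% means no effect; miR-21 action dims this reporter so a rising signal means less miR-21 action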
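HeLa miR-21-FLuc reporter line, endogenous miR-21; 2000 cells/well in DMEM/10% FBS; compound titration up to ~40uM final, 48 h, 37 degree Celsius; luciferase detection reagent, 15 min lysis, CCD luminescence.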
Rango release inh: prevents RanGTP from dissociating the Rango-importin beta complex | O95149+P62826 | Biochemical FRET Rango-importin beta, RanGTP-induced dissociation | Potency, µM (highest dose often 46.1 µM), for the others: at the top dose activity change, negative = inhibition | 0.071% of 340,000 active | AID 540253; active means falling FRET ratio curve, often poorly fitted, with flat reads before Ran was added; inconclusive means other falling curves, or compound fluorescence or quenching; inactive means flat or rising ratio curve;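 note: potency is the fitted concentration of half-maximal effect; % of control where 0% means no effect; nearly all actives have a fitted effect of over 45% in size; -100% = wells without RanGTP and RCC1; the record marks most hits as doubtful in a second field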
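Compounds preincubate 5 min with complex of recombinant Rango and importin beta in PBS with 1 mM DTT. Ran (0.6 uM) loaded with 2 mM GTP plus 0.2 uM RCC1 starts dissociation; FRET is recorded 45 min later.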
Rango-impB inh: inhibitors of Rango-importin beta complex formation; Rango CFP/YFP FRET sensor + importin beta, 45 min; 0.031% of 340,000 active; AID 540263; Potency, µM (doses to about 92.2 µM), for the others: at the highest dose inhibition of complex formation; Q14974; active = rising FRET ratio curve, often small or poorly fitted; inconclusive = mostly compound fluorescence or quenching in the first reads; inactive = flat curves in all reads;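 note: potency is the fitted concentration of half-maximal effect; 0% = DMSO wells and 100% = buffer wells lacking importin beta; nearly all actives have a fitted effect of over 15% in size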
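Inhibition scored from the CFP 486 nm/YFP 530 nm FRET ratio 45 min after adding 0.125 microM importin beta to 50 nM Rango biosensor preincubated 5 min with compound (room temperature, PBS with DTT, Tween-20, BSA). No-importin wells as positive control.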
GLA inh pH 4.5: alpha-galactosidase A (human) inhibition, pH 4.5; purified enzyme, 4-MU-alpha-Gal fluorescence, pH 4.5; P06280; AID 1467; 230,000 tested, under 10 active; activity change, negative = inhibition, % at 105 µM; inconclusive = small, poorly fitted or top-dose-only inhibition, or a rising curve; inactive = flat fitted curve, though single readings scatter; no compound was filed as active;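 note: 0% = full activity with enzyme and -100% = basal without enzyme; dose as in the result columns while the protocol names 77 µM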
Target sequence (P06280 whole entry, looked up): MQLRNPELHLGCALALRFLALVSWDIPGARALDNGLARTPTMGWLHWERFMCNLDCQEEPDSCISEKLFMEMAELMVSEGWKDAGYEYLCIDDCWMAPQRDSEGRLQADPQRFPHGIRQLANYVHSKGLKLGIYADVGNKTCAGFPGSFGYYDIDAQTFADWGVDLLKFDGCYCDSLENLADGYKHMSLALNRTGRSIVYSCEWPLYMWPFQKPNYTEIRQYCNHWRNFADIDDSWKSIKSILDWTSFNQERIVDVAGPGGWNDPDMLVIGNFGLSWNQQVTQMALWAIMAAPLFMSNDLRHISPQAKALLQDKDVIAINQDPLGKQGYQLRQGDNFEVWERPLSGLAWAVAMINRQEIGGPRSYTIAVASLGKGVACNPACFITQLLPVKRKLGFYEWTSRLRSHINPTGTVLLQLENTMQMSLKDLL
An asterisk follows results filed as active; ? = inconclusive; nt = no result given; & = joins results of further samples. An excerpt. The share of hits here may be higher or lower than overall.

structure	miR-21 FLuc	Rango release inh	Rango-impB inh	GLA inh pH 4.5
Cc1ccc(CN2C(=O)C3CCCN3c3ccc(S(=O)(=O)N4CCOCC4)cc32)cc1 (configuration not stated)	-10%	nt	nt	0
COc1ccc(-c2nnc(Nc3nc4c(OC)cccc4s3)o2)cc1	-2%	7%	5.5%	-15
COc1c2ccoc2nc2c(OC)c(OCC(OC(C)=O)C(C)(C)O)ccc12 (configuration not stated)	-13%	-12%	-0.7%	9
Cn1cnnc1SCC(=O)N1CCN(C(=O)c2ccco2)CC1	8%	7%	-2.2%	3
COCCN(C(=O)CSc1nnc(-c2ccc(C)c(C)c2)o1)c1c(N)n(CC(C)C)c(=O)[nH]c1=O	nt	15%	0.0%	nt
O=C(NC(NC(=S)Nc1ccccc1C(=O)O)C(Cl)(Cl)Cl)c1ccco1 (configuration not stated)	-5%	0%	1.1%	-1
COC(=O)c1ccc(Cl)c(NC(=O)CN(c2ccc3c(c2)OCO3)S(C)(=O)=O)c1	-5%	-1%	-0.2%	-1
CCOc1ccc(Br)cc1S(=O)(=O)NC1CC(C)(C)NC(C)(C)C1	-6%	14%	-0.7%	nt
CCC(=O)OCCNc1cc(Sc2nc3ccccc3[nH]2)c2nonc2c1[N+](=O)[O-]	?	-10%	0.5%	-9
N/C(COc1cc(Cl)cc(Cl)c1)=N\O	-8%	-1%	0.0%	-14
CC(=O)c1cccc(N(CC(=O)Nc2ccccc2F)S(C)(=O)=O)c1	-6%	3%	0.1%	0
CCOc1cc2[nH]c(=O)n(CCCCCC(=O)NC3CCCC3)c(=O)c2cc1OCC	3%	-14%	0.8%	nt
Nc1cc(N2CCCC2)c(Cl)cc1[N+](=O)[O-]	-9%	21%	2.8%	-1
CCC(NC(=O)c1[nH]c(C)c(C(C)=O)c1C)c1ccc(Br)cc1 (configuration not stated)	9%	0%	-3.1%	nt
Cc1c(C(=O)Nc2c(F)cccc2F)sc2ncnc(N3CCN(c4ccccc4)CC3)c12	2%	-1%	-0.1%	-11
Cc1ccc(S(=O)(=O)CCC(=O)OCC(=O)NCc2ccc(Cl)cc2)cc1	1%	0%	-1.5%	1
CN1CCC(OC(=O)c2ccc(Cl)cc2Cl)CC1	-11%	11%	-1.1%	-8
COc1ccc(/C=C/C(=O)OCC(=O)NC2CCCCCC2)cc1OC	nt	-21%	-1.2%	nt
O=C(C=Cc1ccco1)c1ccco1	nt	-13%	?	nt
Cc1ccc(SCc2cc(=O)n3ccsc3n2)c(C)c1	-80%	nt	nt	6
CO/N=C(\C)C(Cc1ccc(Cl)nc1)Cc1ccc(Cl)nc1	1%	18%	-1.8%	nt
Cc1ccc(O)c(-c2cc(C(F)(F)F)[nH]n2)c1	3%	8%	-3.7%	5
COc1ccc(C(=O)Nc2ccc(CN3CCCCC3)cc2)cc1	-12%	-9%	-2.6%	2
N#CCCN(C(=O)COC(=O)CCc1ccccc1)c1ccccc1	7%	1%	-1.9%	nt
O=[N+]([O-])c1ccc2c(c1)nc1n2CCN(CC2CCCO2)C1 (configuration not stated)	-31%	7%	3.3%	-21

structure	miR-21 FLuc	Rango release inh	Rango-impB inh	GLA inh pH 4.5
C=CCN1C(=O)/C(=C2/Sc3ccc(OC)cc3N2C)SC1=Nc1ccccc1	-8%	-14%	?	0
O=C(O)c1ccccc1C(=O)NC1Cc2ccccc2C1	1%	20%	1.8%	-7
O=C(c1ccc(NC2=NC3CS(=O)(=O)CC3S2)cc1)N1CCN(Cc2ccccc2)CC1 (configuration not stated)	-1%	17%	-0.9%	-16
CSc1ccc(CCNC(=O)CCc2nnc3ccc(NCCCN4CCCC4=O)nn23)cc1	-3%	-10%	5.3%	nt
O=C(COC(=O)c1cc(Cl)nc(Cl)c1)NCCc1ccc(F)cc1	nt	-4%	3.9%	nt
COCCCNC(=O)N1c2ccccc2Sc2ccccc21	-4%	1%	0.3%	nt
COc1ccc(C2(c3ccc(OC)cc3)NC(=O)N(CC(=O)Nc3ccccc3C(F)(F)F)C2=O)cc1	9%	18%	-1.9%	nt
CCCc1cc(=O)oc2c(C)c(OCC(=O)NCCN3CCOCC3)ccc12	-5%	0%	-1.1%	nt
O=C(CN1CCCC1)Nc1ccc(OCc2ccccc2)cc1	-27%	23%	-0.2%	-13
OC(CNC1Cc2ccccc2C1)COc1ccc(F)cc1 (configuration not stated)	-9%	19%	1.1%	-7
O=C(O)c1ccccc1C(=O)Nc1ccc(Oc2cccc(C(F)(F)F)c2)nc1	2%	5%	3.7%	2
NC1=NC(c2ccccc2)=NC1(NC(=O)c1ccccc1)C(Cl)Cl (configuration not stated)	-2%	0%	-1.5%	-5
CS(=O)(=O)N(CC(=O)Nc1ccc2c(c1)OCO2)c1ccccc1	-11%	0%	-3.9%	-19
COc1ccc(Cc2nc3ccc(C(=O)NCc4ncc(C)[nH]4)cc3o2)cc1OC	-9%	2%	1.0%	nt
O=C(Nc1ccccn1)c1cc(-c2cccnc2)nc2ccc(Br)cc12	0%	-8%	?	1
O=C(O)c1ccc(COc2c(F)c(F)cc(F)c2F)o1	-11%	1%	-0.4%	-1
CC(=O)c1ccccc1Oc1cc(NN2CCCCC2)c([N+](=O)[O-])cc1[N+](=O)[O-]	-2%	-14%	-6.2%	nt
O=C(CCn1c(=O)oc2ccccc21)N(Cc1ccccc1)c1ccccc1	8%	34%	1.5%	-2
Cc1ccc(CO/N=C/c2c(O)cc(C)oc2=O)cc1	5%	0%	-2.8%	8
Cc1cc(S(=O)(=O)Nc2ccc(C(=O)NCC(c3ccco3)N(C)C)cc2)ccc1F (configuration not stated)	nt	-6%	-2.2%	nt
S=C(Cc1ccc(Cl)cc1)N1CCOCC1	-6%	-1%	1.3%	-3
CCCCOC(=O)C1CCCC(C(=O)OCCCC)N1 (configuration not stated)	-4%	1%	6.3%	-7
O=C(NC(CO)C(O)c1ccc([N+](=O)[O-])cc1)C(Cl)Cl (configuration not stated)	9%	12%	-2.5%	3&9
O=C(CNc1cc([N+](=O)[O-])ccc1NCCO)Nc1cccc(S(=O)(=O)N2CCCCC2)c1	nt	1%	1.5%	nt
FC(F)(F)c1ccc(Cl)c(-n2c(-c3cc(C4CC4)[nH]n3)n[nH]c2=S)c1	-2%	46%	-2.4%	-8

structure	miR-21 FLuc	Rango release inh	Rango-impB inh	GLA inh pH 4.5
CC(C(=O)NC(=O)NC1CCCCC1)N(C)CC(=O)Nc1ccc(F)c(F)c1F (configuration not stated)	nt	6%	-1.0%	nt
CCOc1ccc(Cc2nc(C)c(CC(=O)N3CCOCC3)c(=O)[nH]2)cc1	-6%	-5%	0.7%	-3
O=C(c1cccs1)N1CCc2ccccc21	-55%	6%	-2.7%	-6
CCOc1ccc(/C=C2\SC(=S)NC2=O)cc1OC	-43%	-13%	-3.4%	6
O=C1NC(=Nc2ccc(O)cc2)S/C1=C\C=C\c1ccco1	2%	4%	-2.6%	-1
O=C(CSc1n[nH]c(-c2ccccc2F)n1)Nc1cc(F)ccc1F	nt	6%	-1.5%	nt
O=C(CCNS(=O)(=O)c1ccccc1F)OCc1ccccc1Cl	nt	-7%	-6.3%	nt
O=C(NCCCCNCCCNC(=O)c1ccccc1)c1ccccc1	nt	-9%	2.2%	nt
CCCCCCC(=O)Oc1cccc(N2C(=O)C3CCCCC3C2=O)c1 (configuration not stated)	-4%	-12%	2.9%	0
Cc1ccccc1NS(=O)(=O)c1cc(S(C)(=O)=O)ccc1C	-1%	1%	1.0%	1
COc1ccc(CC(=O)OCC(=O)NCc2ccc(F)cc2)cc1	nt	-13%	0.0%	nt
CCOc1c2ccc(C(=O)NCc3ccc4c(c3)OCO4)cc2nn1CCOC	-7%	5%	7.7%	-23
CN1CCC(N(C)C(=O)c2ccc(Cl)c(S(=O)(=O)N3CCCCC3)c2)CC1	nt	1%	-0.3%	nt
COc1ccc(NC(=O)CSc2ccc3c(c2)OCCO3)cc1	nt	5%	5.0%	nt
COc1cccc2cc(C(=O)NCc3ccco3)c(=Nc3ccc(C(=O)O)cc3)oc12	-31%	27%	-3.4%	-2
COc1ccc(NC(=O)CC2SC(N3CCOCC3)=NC2=O)cc1OC (configuration not stated)	nt	2%	1.2%	nt
O=C(N1CCc2[nH]c3ccccc3c2C1)C(F)(F)F	-5%	?	?	nt
Cc1cccc(C(=O)N2CCN(Cc3nc4sc5c(c4c(=O)[nH]3)CCCC5)CC2)c1	0%	-6%	2.4%	nt
COC(=O)C(Cc1ccccc1)NC(=O)CC(C)CC(=O)Nc1ccc(OC)cc1OC (configuration not stated)	-3%	2%	-2.9%	nt
CCOC(=O)c1c(NC(=O)COC(=O)CC(NC(C)=O)c2ccccc2)sc(C(=O)NC)c1C (configuration not stated)	nt	-3%	-1.2%	nt
CCNS(=O)(=O)c1ccc(NC(=O)CC(C)c2ccccc2)cc1 (configuration not stated)	-1%	?	0.2%	-2
CCc1cccc(CC)c1NC(=O)C1CCN(C(=O)c2ccco2)CC1	7%	-16%	-0.9%	nt
Cc1nc2ccccc2c2oc(C(=O)NCC3CCCO3)cc12 (configuration not stated)	15%	6%	4.6%	-3
CCn1cc(C(=O)O)c(=O)c2cc(F)c(N/N=C/c3ccccc3)cc21	-2%	-12%	?	2
CC(=O)Nc1ccc(Sc2ccccc2C(=O)Nc2ccc(F)cc2)cn1	1%	-3%	-0.5%	-8

structure	miR-21 FLuc	Rango release inh	Rango-impB inh	GLA inh pH 4.5
COc1cc(/C=C/C(=O)N2CCN(Cc3ccccc3)CC2)cc(OC)c1OC	13%	-11%	-0.1%	nt
COc1ccc(/C(C)=N/NC(=O)CNC(=O)/C=C\c2ccccc2)c(OC)c1	1%	1%	-2.6%	nt
CCOc1ccc(C2c3c(oc4cc(C)c(C)cc4c3=O)C(=O)N2CCCN2CCOCC2)cc1 (configuration not stated)	-1%	-7%	-1.8%	-2
O=C(Nc1ccc(-c2csc(Nc3ccccc3)n2)cc1)c1cccc(C(F)(F)F)c1	28%	9%	-1.4%	-6
Cn1nc(CC(=O)NC2CCCCCCCCCCC2)c2ccccc2c1=O	-1%	-8%	-1.6%	-1
CC(C)(C)n1nnnc1SCC(=O)Nc1nn(-c2ccccc2)nc1C(N)=O	5%	-12%	-2.3%	2
Cc1cc(C)c(NC(=O)CSc2nc(COc3ccccc3)nc3ccccc23)c(C)c1	0%	-1%	-0.3%	-2
Nc1cc(Cl)ccc1Oc1ccc2ccccc2c1	-27%	19%	-3.9%	2
CN(C)c1ccc(C(C(=O)NCC2CCCO2)N(C(=O)c2snc(C(N)=O)c2N)c2ccc3c(c2)OCO3)cc1 (configuration not stated)	7%	-3%	-2.0%	nt
CC1(C)Cc2c(cnn2-c2ccccc2)C(=O)/C1=N\NC(=O)c1ccccc1O	-13%	10%	-0.5%	-8
O=C(CSc1nc(-c2ccccc2)cs1)N1CCN(C(=O)c2ccco2)CC1	3%	14%	-2.8%	-9
CCOC(=O)c1cnc2c(-c3ccccc3)cnn2c1C	-63%	19%	5.6%	-4
CCc1ccc(N2C(=O)CC(N3CCN(Cc4ccc5c(c4)OCO5)CC3)C2=O)cc1 (configuration not stated)	-3%	-11%	-1.1%	10
CCCCN=C1NN=C(c2ccc(C)c(C)c2)CS1	-37%	0%	-1.9%	-12
CC(=O)c1c(C)nc(Nc2nc(C)c3cc(C)ccc3n2)nc1C	-25%	-12%	0.8%	-3
CCC(CO)Oc1cc(NC(=O)c2cccc(OC)c2)c2ncn(C(C)C)c2c1 (configuration not stated)	nt	-2%	2.9%	nt
CCN(CCCNC(=O)C1CCN(C(=O)c2cc3sccc3n2C)CC1)Cc1ccccc1	-4%	0%	1.1%	nt
CC1=C(C(=O)OCc2ccccc2)C(c2ccc(N3CCOCC3)cc2)NC(=O)N1 (configuration not stated)	-12%	-3%	-0.1%	-9
